Arbovirus inh: antivirals against arbovirus infection. inhibition, % at 10 µM. arbovirus infection cell-based antiviral screen. 200,000 compounds, 0.37% hits. AID 1251;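 active = inhibition from about 30%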;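 also: bluetongue infection of BSR cells; cell survival read as ATP light after 72 h; 0% = infected wells without compound and 100% = uninfected wells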
Mtb growth: M. tuberculosis H37Rv growth inhibitors, H37Rv strain (AID 1626) | M. tuberculosis H37Rv growth inhibition; higher % means a stronger effect | inhibition, % at 10 µM, or IC50 in µM where a hit was titrated | 220,000 compounds, 0.95% hits;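 active = confirmed in a dose series; inconclusive = inhibition above 80% but not taken into the dose series; inactive = below 80% or under 30% at every dose of the series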;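 also: bacteria incubated seven days before Alamar blue readout; 0% = bacteria only wells and 100% = bacteria with antibiotic wells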
Mtb bLac sens: beta-lactam sensitization of Mtb H37Rv | M. tuberculosis H37Rv growth with meropenem, percent inhibition; hits of this screen are not shown here | inhibition, % at 25 µM | 330,000 compounds, 0.27% hits;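 active = about 74% or more and at least 40 points above the plate without the antibiotic, then above 30% in a dose series; inconclusive = first-round hits that could not be retested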;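 also: growth measured after seven days incubation then overnight dye step; 0% = bacteria only wells and 100% = bacteria with antibiotic; twin plates without the antibiotic show which effects depend on it; some results filed as inactive read as strong as hits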
YopH inh: blocks Yersinia enterocolitica YopH tyrosine phosphatase; fluorescence Ex485/Em525; inhibition, %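 (about 10 µM by stock and volumes)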; 140,000 compounds, 0.16% hits; AID 898;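 active = inhibition of 50% or more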;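 also: controls were vehicle for no effect and minimum signal wells for full effect; inactives centre near -20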
RecA splice inh: Mtb RecA intein splicing inhibition; 290,000 compounds, 0.75% hits; cell-free RecA intein splicing, fluorescence; inhibition, %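 (about 9 µM by stock and volumes)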; P9WHJ3; in the data active = inhibition above about 30%; inconclusive = no clear call, values can overlap the other calls;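 also: 0% = vehicle wells and 100% = reference inhibitor control wells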
Target sequence (P9WHJ3 whole entry, looked up, canonical isoform): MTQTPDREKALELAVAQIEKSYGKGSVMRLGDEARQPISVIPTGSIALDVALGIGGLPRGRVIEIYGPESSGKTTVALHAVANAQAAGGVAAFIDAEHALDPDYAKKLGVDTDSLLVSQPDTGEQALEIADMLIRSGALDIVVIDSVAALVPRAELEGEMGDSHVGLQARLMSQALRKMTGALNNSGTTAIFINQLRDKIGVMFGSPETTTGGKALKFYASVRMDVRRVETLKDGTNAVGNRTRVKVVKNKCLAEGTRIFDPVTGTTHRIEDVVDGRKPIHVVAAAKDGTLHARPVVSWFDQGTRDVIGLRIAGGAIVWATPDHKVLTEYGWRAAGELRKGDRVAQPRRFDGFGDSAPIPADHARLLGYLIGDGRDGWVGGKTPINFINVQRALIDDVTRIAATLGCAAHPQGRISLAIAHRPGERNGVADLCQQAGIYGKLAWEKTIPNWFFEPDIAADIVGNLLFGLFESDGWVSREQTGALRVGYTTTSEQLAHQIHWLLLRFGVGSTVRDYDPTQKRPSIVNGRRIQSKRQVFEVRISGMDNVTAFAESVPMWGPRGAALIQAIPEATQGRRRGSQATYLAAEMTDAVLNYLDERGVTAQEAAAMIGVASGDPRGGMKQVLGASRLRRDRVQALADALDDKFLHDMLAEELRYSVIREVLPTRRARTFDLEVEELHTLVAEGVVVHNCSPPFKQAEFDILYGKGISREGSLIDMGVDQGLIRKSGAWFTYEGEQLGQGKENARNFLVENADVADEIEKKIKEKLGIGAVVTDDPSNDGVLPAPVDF
Arbovirus inh repeat: also measured in Arbovirus inh; calls as there; inhibition, %; measured here: 10K subset replicate screen; many hits read low in the repeat;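 first of two repeat runs on a subset; 0% = infected and 100% = uninfected wells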
The depositor's hits bear a star; ? = inconclusive; nt = no result given.

SMILES	Arbovirus inh	Mtb growth	Mtb bLac sens	YopH inh	RecA splice inh	others
Cc1ccc(NC(=O)c2cc(N3CCOCC3)nc3ccccc23)cc1	6	1%	-3	-3	-11
CCC(=O)Nc1c(C#N)c2nc3ccccc3nc2n1C1CCCCC1	18	-2%	2	-31	6.9
Fc1cc(Br)ccc1COc1ccc(-c2nnco2)cc1	nt	nt	5	nt	3.0
Cc1[nH]c2ccccc2c1C(c1ccncc1)N1CCCCC1 (stereo not given)	3	2%	2	nt	-0.3
Cc1cc(C)nc(SCC(=O)N/N=C/c2cc(C)n(-c3ccccc3C)c2C)n1	13	-2%	4	-46	-2.1
CC(C)C(=O)N1CCN(c2ccccc2NC(=O)c2ccco2)CC1	nt	nt	7	nt	3.0
Fc1cccc(Cl)c1-c1nnc2ccc3ccccc3n12	18	13%	2	nt	0.8
O=C(NC1CCCCCCC1)C1CCCN(S(=O)(=O)c2cnc[nH]2)C1 (stereo not given)	-1	-9%	-4	-43	-1.1
CC1CCN(CC(=O)Nc2nccs2)CC1	nt	nt	-2	nt	-1.3
CCOC(=O)[C@@H]1[C@H]2COc3cc(OC)ccc3[C@@H]2N2C(=O)N(c3cccc(F)c3)C(=O)[C@@]12C	nt	nt	-11	nt	3.0
N#CCCN1C(=O)C2(OCCO2)c2ccccc21	nt	nt	8	nt	4.0
COc1ccc(S(=O)(=O)N2CCOC2CNC(=O)C(=O)NCc2ccccn2)cc1 (stereo not given)	nt	nt	-1	nt	-0.7
COc1ccc(-c2cc(C(=O)N3CCCC3)c3ccccc3n2)cc1	nt	nt	1	nt	-0.7
CCOc1ccc(CCNC(=O)C2CCN(c3nnc(-n4cccc4)s3)CC2)cc1OCC	-5	8%	9	-38	-2.7
CCCNC(=O)c1cnc(-c2ccccc2)nc1-c1ccccc1	nt	nt	1	nt	-1.0
CN(CC(=O)NCC(c1ccco1)N1CCCCC1)S(=O)(=O)c1ccc(Cl)cc1 (stereo not given)	nt	nt	-4	nt	-3.6
Cc1cccc(N/N=C/c2ccccc2O)c1	-19	36%	67	-2	-1.8
CC12CC(c3ccccc3O1)N(C(=O)c1ccco1)C(=S)N2c1ccccc1 (stereo not given)	18	2%	3	-26	1.7
COc1ccc2[nH]c3c(=O)n(Cc4ccc(C(=O)NCC5CCCO5)cc4)c(=S)[nH]c3c2c1 (stereo not given)	-6	-4%	3	nt	-2.2
O=C(N/N=C/c1cccc(O)c1)NC1CCCCC1	1	7%	-1	nt	-2.6
CC(C)(C)NC(=O)NC(=O)CSc1nnc(-c2ccccc2F)n1N	-2	-6%	-12	-2	-5.4
Cc1cc(C(=O)COC(=O)c2ccccc2Br)c(C)n1CC1CCCO1 (stereo not given)	nt	5%	-10	nt	5.6
Cc1ccc2nc(Cn3cc(C(F)(F)F)cc(Cl)c3=O)cc(=O)n2c1	8	2%	-4	nt	-1.3
COc1ccc(NS(=O)(=O)c2ccc3oc(Nc4ccc5c(c4)OCCO5)nc3c2)cc1	-32	-7%	11	-1	7.2
CC(C)CC1NC(=O)N(CC(=O)N2c3ccccc3NC(=O)C2(C)C)C1=O (stereo not given)	1	3%	-2	nt	-0.7
O=c1[nH]c(=O)n(-c2cccc(Cl)c2)c(O)c1/C=N/c1ccccn1	11	-11%	3	-21	-0.7
Cc1ccc(-c2cc(C(F)(F)F)n3ncc(C(=O)NCc4ccco4)c3n2)cc1	10	-11%	-1	-52	-2.8	Arbovirus inh repeat=1
O=C(C1CC(=O)N(C2CCCC2)C1)N1CCN(c2ccc(F)cc2)CC1 (stereo not given)	2	2%	4	-41	-1.0	Arbovirus inh repeat=4
O=C(O)CC(CC(=O)NCC(O)c1ccccc1)c1ccccc1 (stereo not given)	nt	nt	-4	nt	-1.3
Cn1c2ccccc2c2nnc(SCc3ccc4nonc4c3)nc21	-6	-16%	7	10	1.1
CCc1ccc(OCC(=O)NCCOc2ccccc2)cc1	-5	3%	nt	-9	1.2
N#Cc1c(N)nc(SCC(=O)NC2CCCCC2)c(C#N)c1-c1ccc(Cl)cc1	-7	-7%	14	-30	-2.3
COc1ccccc1C1=NOC(C(=O)N2CCN(C(=O)c3ccco3)CC2)C1 (stereo not given)	nt	nt	-4	nt	-0.4
Cc1cc(C)c(NS(=O)(=O)c2ccc(Cl)c(C(=O)O)c2)c(C)c1	7	-8%	-6	-57	1.9
COc1ccc(-c2nn(-c3ccccc3)cc2C(=O)N(C)C)cc1	nt	nt	-6	nt	1.1
Cc1cc(C)c(S(=O)(=O)N/N=C/c2ccc([N+](=O)[O-])o2)c(C)c1	nt	nt	99	nt	-3.2
O=c1[nH]c(C(F)(F)F)nc2ccc3ccccc3c12	nt	nt	-6	nt	-0.6
CC(=O)Nc1ccc(S(=O)(=O)Nc2nc3ccccc3nc2Nc2ccc(S(N)(=O)=O)cc2)cc1	-7	0%	1	-17	-7.1
COc1ccc2nc(Cl)c(C3CC(c4ccco4)=NN3C(=O)CCCC(=O)O)cc2c1 (stereo not given)	nt	-3%	-6	nt	-2.0
Cc1ccc(NC=C(S(=O)(=O)c2ccccc2)S(=O)(=O)c2ccccc2)c(C)c1	-7	1%	-6	-45	-3.8
COc1ccc(NS(=O)(=O)c2c(C)[nH]c(=O)[nH]c2=O)c(OC)c1	3	0%	-1	17	-1.1
CCOC(=O)CSc1nnc(-c2ccoc2C)n1-c1ccc(C)cc1	1	-6%	41	-10	4.0
O=C1CN(O)C=C2N=c3ccccc3=C2N1c1ccc([N+](=O)[O-])cc1	18	12%	0	nt	-0.7
COC(=O)C(NC(=O)c1ccc(Cl)cc1)(Nc1nc(C)cs1)C(F)(F)F (stereo not given)	17	-11%	4	21	0.2
COc1ccc2oc(C(=O)NC(C)(C)C)c(C)c2c1	-4	8%	64	nt	-2.1
Cn1nnnc1SCC(=O)NC(=O)Cc1ccccc1	-1	6%	-13	-42	-1.1
COc1cccc(-c2ccc(NC(=O)C3CCCN(Cc4cnc(C)s4)C3)cc2)c1 (stereo not given)	nt	nt	?	nt	1.9
CCN1CCN(c2ncnc3c2sc(=S)n3-c2ccccc2)CC1	0	-9%	-12	-9	0.5	Arbovirus inh repeat=-1
COc1ccc(C(=O)NCC(=O)N2CCCCC2)cc1OC	2	3%	6	nt	nt
O=C(NCCN1C(=O)CCC1=O)c1ccncc1	4	1%	-7	-24	-1.3
Going on with the list.
SMILES	Arbovirus inh	Mtb growth	Mtb bLac sens	YopH inh	RecA splice inh	others
Cc1ccc(NC(=O)c2cccnc2)cc1S(=O)(=O)N1CCOCC1	nt	nt	-8	nt	0.3
CC(=O)C1=C(O)C(=O)OC1c1ccc(Cl)cc1 (stereo not given)	nt	-1%	-5	nt	0.5
CN1CCN(NC(=O)c2cc(-c3ccccn3)nc3ccccc23)CC1	0	-4%	7	nt	0.2
O=C(CCC(=O)N(CC(=O)NC1CCCCC1)c1ccc(F)cc1)Nc1ccccn1	nt	nt	1	nt	0.4
COc1ccc(C(=O)CNc2cccc(F)c2)cc1	nt	nt	6	nt	-4.7
CCOc1ccc(-n2cc(C(=O)N3CCN(C)CC3)c3cc(OC)c(OC)cc3c2=O)cc1	3	-4%	-6	-22	0.4
Cc1cccc(-c2noc(CSc3ccccc3)n2)c1	-1	2%	-1	-3	13
CC(=O)Nc1ccc(Nc2cc(C)nc3c(-c4ccc(Cl)cc4)c(C)nn23)cc1	-5	22%	22	-24	-2.2
COCCc1nc2ccc(C(=O)N3CCCCC3COC)cc2o1 (stereo not given)	nt	nt	4	nt	-1.5
CSc1cc(-c2ccc(Cl)cc2)n(Cc2ccccc2)c(=O)c1C#N	-3	4%	-2	-11	-1.8
Cc1cc(=O)[nH]c(SCC(=O)N2CCCC(C)C2)n1 (stereo not given)	nt	nt	-3	nt	-0.3
S=c1sc2c(Cl)ncnc2n1-c1ccccc1	-35	62%	nt	nt	23
CCOc1ccc(S(=O)(=O)Nc2cccc(C(=O)N3CCN(c4cccc(OC)c4)CC3)c2)cc1	nt	nt	4	nt	-0.5
O=C(O)COc1ccc(-c2nc(-c3ccccc3)c(-c3ccccc3)[nH]2)cc1	nt	nt	3	nt	-9.0
COc1ccccc1C(=O)C1CCCN(C(=O)c2ccc(C(C)=O)s2)C1 (stereo not given)	nt	nt	1	nt	-1.2
COC(=O)Cc1cc(=O)oc2cc(OC)ccc12	5	-3%	-5	-9	-1.3
O=C(c1cc(Br)ccc1Cl)N1CCN(c2ncccn2)CC1	nt	nt	3	nt	-4.8
Cn1c(=O)c2c(nc(Oc3ccccc3Cl)n2C)n(C)c1=O	nt	nt	0	nt	-1.3
COc1cc(NC(=S)N2CCCC2)cc(OC)c1	nt	nt	-5	nt	-1.1
COc1ccc(S(=O)(=O)N2CCC(O)(c3cccnc3)CC2)cc1OC	-1	-2%	0	nt	0.5

Ordered by length of the SMILES (rising): 5 of the compounds above
SMILES	Arbovirus inh	Mtb growth	Mtb bLac sens	YopH inh	RecA splice inh	others
COc1cc(NC(=S)N2CCCC2)cc(OC)c1	nt	nt	-5	nt	-1.1
O=C(c1cc(Br)ccc1Cl)N1CCN(c2ncccn2)CC1	nt	nt	3	nt	-4.8
Cn1c(=O)c2c(nc(Oc3ccccc3Cl)n2C)n(C)c1=O	nt	nt	0	nt	-1.3
COc1ccc(S(=O)(=O)N2CCC(O)(c3cccnc3)CC2)cc1OC	-1	-2%	0	nt	0.5
O=C(O)COc1ccc(-c2nc(-c3ccccc3)c(-c3ccccc3)[nH]2)cc1	nt	nt	3	nt	-9.0

(list continues)
SMILES	Arbovirus inh	Mtb growth	Mtb bLac sens	YopH inh	RecA splice inh	others
CC(=O)NCC(=O)N1CCCC(C(=O)c2ccc(Oc3ccccc3)cc2)C1 (stereo not given)	-8	5%	-10	nt	-2.9
O=C(NCc1ccccc1)C(c1ccc(F)cc1)N(C(=O)c1csnn1)C1CCCC1 (stereo not given)	nt	nt	7	nt	2.2
CC(C)C(=O)Nc1cc2c3c(c1)CCC(=O)N3CCC2	nt	nt	1	nt	1.3
CC(C)NCC(O)c1cc(O)cc(O)c1 (stereo not given)	nt	-15%	-3	nt	-7.9
CN(C)CCCNC(=O)CC(c1ccc(F)cc1)c1ccco1 (stereo not given)	-7	7%	-9	-27	1.7	Arbovirus inh repeat=3
COc1ccc(Cl)cc1NC(=O)NCCN1CCNC1=O	nt	-1%	-6	nt	12
CCO[C@H]1OC(C(=O)N2CCN(C)CC2)=C[C@@H](c2ccc(Br)cc2)[C@@H]1CCCO	-1	-16%	-6	nt	-1.4
COc1ccc(C(=O)N2CCC(C(=O)Nc3cccc(C)c3)CC2)cc1OC	2	-15%	4	-5	0.0	Arbovirus inh repeat=-3
Cc1cccc(C(=O)Nc2ccccc2C(=O)NCc2cccnc2)c1	1	3%	0	nt	0.3
COc1cc(C(CCN2CCCC2)c2c(OC)cc(OC)c3c(-c4ccccc4)cc(=O)oc23)cc(OC)c1OC (stereo not given)	nt	-3%	41	nt	5.2
CCCCCCn1c(=O)c(F)cn(Cc2ccc(OC)c([N+](=O)[O-])c2)c1=O	-10	2%	-4	1	4.4
COC(=O)c1ccccc1NC(=O)c1cc2ccccc2o1	nt	nt	44	nt	0.5
COCCCNC(=O)CCN1N=C(c2ccccc2)CCC1=O	nt	nt	-2	nt	0.1
Nc1cc(=O)[nH]c2nnc(SCC(=O)Nc3cccc4ccccc34)n12	nt	nt	-1	nt	2.1
Cc1cc(C)nc(SCCC(=O)Nc2ccccc2Cl)n1	-10	5%	-2	nt	0.3
CC(=O)c1c(C)[nH]c(C(=O)OCC(=O)N(C)c2c(N)n(Cc3ccccc3)c(=O)[nH]c2=O)c1C	nt	nt	4	nt	-0.3
CCOC(=O)c1ccc(NC2c3ccccc3C(=O)N2c2cccnc2)cc1 (stereo not given)	-18	3%	1	-12	-1.9	Arbovirus inh repeat=-11
Cc1c(NC(=S)Nc2cccc(Cl)c2)c(=O)n(-c2ccccc2)n1C	-4	0%	2	nt	-2.5
Clc1ccc(Cc2ccc(SCc3ccccc3)nn2)c(Cl)c1	-14	3%	-3	-1	1.2
Cn1c(=O)oc2cc(S(=O)(=O)NCc3cccnc3)ccc21	nt	-9%	-13	nt	1.6
COC(=O)C1CCN(C(=O)C2CCCCC2)CC1	6	-8%	-1	-23	-0.7
CCOC(=O)C1=NNC(C(=O)c2ccccc2)C1c1ccc(Cl)cc1 (stereo not given)	nt	-4%	-3	nt	10
CC(C)(C)NC(=O)NC(=O)CN1CCN(S(=O)(=O)/C=C/c2ccccc2)CC1	nt	nt	5	nt	-0.8
COc1ccc(CNC(=O)CS(=O)(=O)Cc2nc(-c3ccc(OC)cc3)oc2C)cc1	nt	nt	-2	nt	-1.7
Cc1ccc(S(=O)(=O)c2c(N)n(CCCN(C)C)c3nc4ccccc4nc23)cc1	nt	-2%	-1	nt	-40

Assay outcomes deposited in PubChem BioAssay by several laboratories.

An excerpt. The share of hits here may be higher or lower than overall.
